# KCNQ2 block: KCNQ2 potassium channel inhibitors, primary screen, cell-based, CHO-K1, FluxOR thallium flux, B-score (AID 2156); Potassium voltage-gated channel subfamily KQT member 2 (Rattus norvegicus), O88943; 20 min; active compounds read low; only compounds with negative scores are shown here; some inactives read as strong as hits; B-score at 10 µM; hit rate 1.1% among 310,000;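 active = fluorescence ratio B-score at most minus 3 library SDs, with starting brightness B-score within 2 library SDs, cut at about -5.5 in these data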
# Target sequence (O88943 whole entry, looked up): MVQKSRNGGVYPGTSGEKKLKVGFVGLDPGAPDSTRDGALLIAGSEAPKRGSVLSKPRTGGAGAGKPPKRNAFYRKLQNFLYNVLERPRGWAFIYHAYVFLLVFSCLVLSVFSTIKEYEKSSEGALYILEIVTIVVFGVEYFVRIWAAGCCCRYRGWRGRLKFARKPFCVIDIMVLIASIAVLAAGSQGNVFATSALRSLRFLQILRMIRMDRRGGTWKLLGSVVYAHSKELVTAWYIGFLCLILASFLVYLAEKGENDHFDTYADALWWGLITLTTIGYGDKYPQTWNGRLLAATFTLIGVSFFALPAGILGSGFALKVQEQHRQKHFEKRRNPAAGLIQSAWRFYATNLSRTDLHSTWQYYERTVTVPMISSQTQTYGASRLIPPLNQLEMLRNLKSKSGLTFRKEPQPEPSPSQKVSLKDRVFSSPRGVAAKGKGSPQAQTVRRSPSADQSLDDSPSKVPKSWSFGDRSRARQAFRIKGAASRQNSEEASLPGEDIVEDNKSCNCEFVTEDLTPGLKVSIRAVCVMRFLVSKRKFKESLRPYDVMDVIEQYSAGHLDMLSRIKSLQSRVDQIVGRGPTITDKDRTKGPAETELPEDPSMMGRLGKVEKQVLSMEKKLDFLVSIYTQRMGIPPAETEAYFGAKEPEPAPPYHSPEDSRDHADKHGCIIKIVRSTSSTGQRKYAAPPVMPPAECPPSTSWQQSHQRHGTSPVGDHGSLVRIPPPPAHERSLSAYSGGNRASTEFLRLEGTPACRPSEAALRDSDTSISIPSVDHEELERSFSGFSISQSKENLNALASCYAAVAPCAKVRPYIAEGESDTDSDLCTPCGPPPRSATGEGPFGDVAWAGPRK
# KCNQ2 block baseline: further read-out of KCNQ2 block, marked with its call; B-score; measured here: initial fluorescence intensity artifact check;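 brightness before thallium and not channel activity; 0 = typical well and far values either way flag optical interference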
# Numbers without * were called inactive; i = inactive.
# Every second line gives: KCNQ2 block | KCNQ2 block baseline
C(=N\N(Cc1ccccc1)c1ccccc1)/c1cccnc1
  i | 0.58
COc1ccc(CNC(=O)c2ccc3c(=O)n(-c4ccccc4)c(=O)[nH]c3c2)cc1
  i | 3.2
O=C(NCCC1=CCCCC1)C1CCCN(S(=O)(=O)c2ccc(F)cc2)C1 (stereo unspecified)
  i | -0.75
O=c1[nH][nH]c2ccccc2c1=O
  i | -2.1
COc1ccc(CSCC(=O)Nc2ccc(S(=O)(=O)N3CCCCCC3)cc2)cc1
  i | 0.93
CC(C)c1c(O)nc(SCC(=O)N2CCCCC2)[nH]c1=O
  i | 0.65
CCOC(=O)CSc1n[nH]c(NC(=O)c2ccccc2)n1
  i | -2.4
Cc1ccc2oc(=O)c3cc(C(=O)NCCCN4CC(C)CC(C)C4)sc3c2c1 (stereo unspecified)
  i | -0.47
O=C(O)C1CCN(S(=O)(=O)c2cccc3cccnc23)CC1
  i | 0.21
Clc1ccc(C[n+]2cc(-c3ccccc3)n3c2CCC3)cc1Cl
  i | -0.84
C=CCn1c(=NC(=O)c2ccco2)sc2cc(C(=O)OC)ccc21
  i | -0.19
O=C1CCCC2=C1C(c1ccncc1)n1c(nc3ccccc31)N2 (stereo unspecified)
  i | -0.03
CC1Oc2ccccc2N(CC(=O)NCc2ccccc2)C1=O (stereo unspecified)
  i | -0.1
O=C(C1CCCN(c2ncnc3c2nc2n3CCCCC2)C1)N1CCN(c2cccc(Cl)c2)CC1 (stereo unspecified)
  i | 0.92
Cc1cc(N2C(=O)C3CC=CC(C)C3C2=O)no1 (stereo unspecified)
  i | -1.9
COC(=O)c1ccc(CSCc2ccc(C#N)cc2)cc1
  i | -1.5
CSc1ccc(-c2nc(CSCC(=O)NCCCN3CCOCC3)c(C)o2)cc1
  i | -0.03
Cc1ccc(NC(=O)c2sc3nc(C)nc(N4CCN(c5ccccn5)CC4)c3c2C)c(C)c1
  i | -0.76
O=C(CSc1ccc2c(c1)OCCO2)Nc1cccnc1Cl
  i | 0.01
COc1ccc(OC)c(CN2CCN(C(=O)CCNC(=O)c3ccc(Br)cc3)CC2)c1
  i | 1.1

# Compound profiles (already shown).
# Shown for Cc1ccc(NC(=O)c2sc3nc(C)nc(N4CCN(c5ccccn5)CC4)c3c2C)c(C)c1 : KCNQ2 block: i; KCNQ2 block baseline: -0.76
# Shown for COC(=O)c1ccc(CSCc2ccc(C#N)cc2)cc1 : KCNQ2 block: i; KCNQ2 block baseline: -1.5
# Shown for O=C(C1CCCN(c2ncnc3c2nc2n3CCCCC2)C1)N1CCN(c2cccc(Cl)c2)CC1 (stereo unspecified) : KCNQ2 block: i; KCNQ2 block baseline: 0.92

# The results go on.
# Every second line gives: KCNQ2 block | KCNQ2 block baseline
O=C(Nc1nc2ccccc2[nH]1)c1cccc(S(=O)(=O)N2CCOCC2)c1
  i | -0.55
CCS(=O)(=O)c1ccc2c(c1)N(S(C)(=O)=O)CC(C(=O)NCc1ccccc1OC)O2 (stereo unspecified)
  i | -0.02
CCCCOC(=O)CCN1C(=O)/C(=C2\SC(=S)N(CCC(=O)OCCCC)C2=O)SC1=S
  i | -0.63
O=c1c2ccccc2[nH]c2ccccc12
  i | 1.5
Cc1cc(=O)n2nc(N3CCC(C(=O)NC(C)c4ccccc4)CC3)sc2n1 (stereo unspecified)
  i | -0.11
COc1cccc(/C=N/n2c(N)nc3ccccc32)c1OC
  i | -1.2
Cc1cccc(C2Nc3ccccc3C(=O)N2NC(=O)c2ccc([N+](=O)[O-])cc2)n1 (stereo unspecified)
  i | 0.25
O=C(CN1C(=O)COc2ccccc21)N(Cc1cccnc1)Cc1ccccc1F
  i | -0.54
O=C(CSc1ccccn1)Nc1ccc2c(c1)OCO2
  i | 0.01
O=S(=O)(c1ccc2c(c1)OCCO2)N1CCNCC1
  i | 0.75
COc1ccc2[nH]c(=O)c(CN(C(=O)c3cccnc3)c3ccc(C)c(C)c3)cc2c1
  i | 0.96
O=C(c1ccc(F)cc1Cl)N1CCN(CCc2ccccc2)CC1
  i | 1.1
COc1cccc(CNC(=O)CN2C(=O)COc3ccc(S(=O)(=O)N4CCCC4)cc32)c1
  i | 0.34
O=C1c2ccccc2C(=O)N1CCCn1c(=O)oc2ccccc21
  i | -0.01
Cc1ccccc1C(=O)Nc1ccc(S(=O)(=O)N2CCCC2)cc1
  i | 0.28
CCc1ccc(C(=O)COC(=O)C2CCN(c3ccc(C(F)(F)F)cn3)CC2)cc1
  i | 0.5
CCCCCCCC(=O)Oc1ccc(C(=O)Nc2cc(C)on2)cc1
  i | -0.41
CCc1ccc(NC(=S)N(Cc2cccnc2)Cc2ccco2)cc1
  i | 1.1
O=S(=O)(c1ccc(-n2cnnn2)cc1)N(C1CCCCC1)C1CCCCC1
  i | 0.82
COC(=O)/C(=C\C(=O)c1ccc([N+](=O)[O-])cc1)Nc1ccc(OC)cc1
  i | -0.11
CC1CC(C)CN(CCCNC(=O)Cn2ncc3c([nH]c4ccccc43)c2=O)C1 (stereo unspecified)
  i | 1.5
COc1cccc(CNC(=O)C(c2ccc(Cl)cc2)C(C)C)c1 (stereo unspecified)
  i | -1.7
COc1ccccc1-c1cc(C(=O)N2CCc3ccccc3C2)c2ccccc2n1
  i | 0.07
CCOCc1cn(CC(=O)c2ccc([N+](=O)[O-])cc2)c(C)nc1=N
  i | -0.02
COc1ccc(NC(=O)CC2S/C(=N\c3nccs3)N(C)C2=O)cc1 (stereo unspecified)
  i | -0.68
CCc1ccc(C(C(=O)NC2CCCC2)N(CCOC)C(=O)CCC(=O)Nc2cc(C)on2)cc1 (stereo unspecified)
  i | -0.98
CC1(N2CCOCC2)CC2(O)C(=[N+]1[O-])CCc1c2no[n+]1[O-] (stereo unspecified)
  i | -0.09
COc1ccc(NS(=O)(=O)c2cc(Cl)ccc2Cl)cc1S(=O)(=O)N1CCCCC1
  i | 0.35
O=C(c1ccc(-c2cccc(C(F)(F)F)c2)o1)N1CCN(c2ccccc2O)CC1
  i | 1.5
COc1ccc(-c2nnc(SCC(=O)Nc3ccccc3)n2C)cc1
  i | 1.7
COc1ccc(COCC(CC(C)C)N2CCN(C(=O)c3cccc(C(F)(F)F)c3)CCC2=O)cc1 (stereo unspecified)
  i | 1.5
CCN(CC)S(=O)(=O)c1cccc(C(=O)OC2CCOC2=O)c1 (stereo unspecified)
  i | 3
Cn1c(C(=O)N2CCN(Cc3ccc4c(c3)OCO4)CC2)cc2sccc21
  i | 0.26
CCc1ccc(S(=O)(=O)/N=C2\C=C(Nc3ccc(O)cc3)C(=O)c3ccccc32)cc1
  i | -2
COC(=O)Cc1ccc(OCc2ccc(Cl)nc2)cc1
  i | -0.28
COc1ccc(CNC(=S)N/N=C(\C)c2ccc(OC)cc2)cc1
  i | 0.85
COC(=O)c1c(NC(=O)CSc2ccccc2N)sc(C)c1C
  i | 0.3
O=C(Cc1ccc(-c2ccccc2)cc1)NCc1ccccc1
  i | 0.05
O=C(NC1(C(F)(F)F)NC(=O)N(c2ccc(F)c(Cl)c2)C1=O)c1ccncc1 (stereo unspecified)
  i | 0.04
CC1CCN(C(=O)CSc2n[nH]c(-c3cccs3)n2)CC1
  i | -0.57

# The list goes on.
compound,KCNQ2 block,KCNQ2 block baseline
S=C(NCCc1ccccn1)Nc1cc(Cl)cc(Cl)c1,i,-0.88
COc1cccc(Nc2nc(-c3ccccc3)nc3ccccc23)c1,i,1.1
COc1c(Br)cc(Br)cc1C(=O)Nc1ccccc1N1CCCC1,i,-0.5
CCCC(=O)Nc1ccc(OCC(=O)OC)cc1,i,-0.37
O=S1(=O)CC2NC(=S)N(c3cccc(Br)c3)C2C1 (stereo unspecified),i,-2.2
O=C(NC(c1ccccc1)c1ccccc1)c1cccc(S(=O)(=O)NCc2ccccc2)c1,i,-1.9
O=c1[nH]c2ccc(Cl)cc2c(-c2ccccc2)c1[N+](=O)[O-],i,0.84
O=C(c1ccco1)N1CCN(C(=O)C2CC(c3ccccc3F)=NO2)CC1 (stereo unspecified),i,0.46
COc1ccc(CNC(=O)C(c2ccco2)N(C(=O)c2snc(C(N)=O)c2N)c2cccc(OC)c2)cc1 (stereo unspecified),i,0.29
COc1cc(N=c2ssnc2Cl)cc(OC)c1,i,0.69
Nc1c(C(=O)NCCc2ccccc2)nnn1Cc1ccc(Br)cc1F,i,0.25
Nc1nonc1-n1nnc(C(=O)N/N=C/C2CCCCC2)c1-c1ccccc1,i,-1.6
O=C(Cn1cc2c(n1)CCCC2)NCc1cccs1,i,0.48
Cc1ccc(C)c(Oc2ccc(S(=O)(=O)N3CCN(C)CC3)cn2)c1,i,-0.32
CN(CC(=O)Nc1ccc(N2CCOCC2)cc1)CC(=O)Nc1ccc(Cl)cc1[N+](=O)[O-],i,-0.07
COc1ccccc1CNC(=O)c1nnc(Cc2ccc(Cl)cc2)o1,i,-1.8
O=C(O)c1ccccc1/C=N/Nc1ccc(S(=O)(=O)N2CCOCC2)cc1[N+](=O)[O-],i,-0.13
CN(Cc1ccccc1)c1ccc(C(=O)O)cc1[N+](=O)[O-],i,1.1
CCC1CCCCN1S(=O)(=O)c1ccc(C(=O)Nc2nnc(C3=COCCO3)o2)cc1 (stereo unspecified),i,-0.28
C/C(N)=C(/C#N)C(=O)CSc1nnc(C)n1-c1ccccc1,i,-0.83
CCN1CCN(C(=O)c2ccc3c(c2)c(C)c(C)n3Cc2ccccc2)CC1,i,0.29
Fc1ccc(NC(=S)NC23CN4CN(CN(C4)C2)C3)cc1,i,-2.7
O=C(N/N=C1\C/C(=N\NC(=O)c2ccncc2)c2ccccc21)c1ccncc1,i,1.1
COc1ccc(F)cc1C(=O)C1CCCN(C(=O)CSc2ccccn2)C1 (stereo unspecified),i,0.2
Nc1c(C(=O)C2CC2)sc2nc(-c3ccccc3)cc(C(F)(F)F)c12,i,0.06
CCCCn1c(N)c(N(CCOC)C(=O)c2ccc(C)c(S(=O)(=O)N3CCCCC3)c2)c(=O)[nH]c1=O,i,-1.4
CC(C)[C@H](N[C@@H](C)c1ccccc1)c1c(O)ccc2ccccc12,i,1.2
COc1ccc(C(C)n2c(C)c3c(C)nnc(C)c3c2C)cc1 (stereo unspecified),i,-0.83
C=C1CCN([C@@H](Cc2ccccc2)C(=O)NCCCc2ccccc2)S(=O)(=O)c2ccccc21,i,-1.6
CCN(CC)c1ccc(C2C(C(=O)OCCOC)=C(C)NC3=C2C(=O)CC(C)(C)C3)cc1 (stereo unspecified),i,-0.89
COc1ccc(N2C3=C(CC4=C2CC(C)(C)CC4=O)C(=O)CC(C)(C)C3)cc1,-10*,3.7*
COc1ccc(C2/C=C\CN(C(=O)Nc3ccccc3-c3ccccc3)CC(=O)N2Cc2ccc(F)cc2)cc1 (stereo unspecified),-6.4*,-0.91*
Cc1ccccc1OCC(=O)Nc1cc(Cl)ccc1Oc1ccccc1,-7.4*,-0.03*
CC1(C)CC(=O)C=C(c2cccc3c2oc2ccccc23)C1,i,0.84
CC(C)OC(=O)/C(=C/c1ccc(Br)cc1)NC(=O)c1ccco1,i,1.2
CCOc1ccc(CCNC(=O)COC(=O)c2ccc(C)s2)cc1OCC,i,-0.44
COc1ccc(S(=O)(=O)N(C)C)cc1NC(=O)CSc1ncccn1,i,-1.4
O=C(CCN1CCOCC1)NC1CCCN(Cc2ccccc2F)C1 (stereo unspecified),i,-0.01
COc1ccccc1C(=O)Nc1cc(-c2ccc(C)cc2)no1,i,-0.65
Cc1noc(C)c1S(=O)(=O)N(CC(=O)NCc1ccc(Cl)cc1)c1ccc2c(c1)OCO2,i,1.5

# 2 successive entries out of the list so far:
compound,KCNQ2 block,KCNQ2 block baseline
Cc1ccccc1OCC(=O)Nc1cc(Cl)ccc1Oc1ccccc1,-7.4*,-0.03*
CC1(C)CC(=O)C=C(c2cccc3c2oc2ccccc23)C1,i,0.84

# Returning to the listing, starting 3 compounds before the break.
compound,KCNQ2 block,KCNQ2 block baseline
O=C(CCN1CCOCC1)NC1CCCN(Cc2ccccc2F)C1 (stereo unspecified),i,-0.01
COc1ccccc1C(=O)Nc1cc(-c2ccc(C)cc2)no1,i,-0.65
Cc1noc(C)c1S(=O)(=O)N(CC(=O)NCc1ccc(Cl)cc1)c1ccc2c(c1)OCO2,i,1.5
COc1ccc2oc(C(=O)OCC(=O)N3C(C)CCCC3C)c(C)c2c1 (stereo unspecified),i,2.5
CCc1nnc(NC(=O)c2cccc(C(=O)Nc3nnc(CC)s3)n2)s1,i,1.8
Cc1cc2ccccn2c1C(=O)c1ccc(Cl)cc1,i,-1.2
CCC(C)(C)n1nnnc1C(c1ccc2ncccc2c1)N1CCN(c2nc3ccccc3s2)CC1 (stereo unspecified),i,0.01
COc1ccc(C2Nc3ccccc3C(=O)N2Cc2ccccc2)cc1CN1CCOCC1 (stereo unspecified),i,-1
O=C(COC(=O)CNS(=O)(=O)c1ccc(Br)cc1Cl)Nc1ccc(N2CCOCC2)cc1,i,0.92
Cc1ccc(C(=O)O/N=C(\c2ccccc2)c2cccnc2)cc1,i,0.96
O=C(Nc1ccc(F)cc1F)c1csc(-c2cccs2)n1,i,0.44
COc1ccc(N2CC(C(=O)Nc3ccccc3N3CCCC3)CC2=O)c(OC)c1 (stereo unspecified),i,-0.75
O=P(O)(CCc1ccncc1)CN1CCCCC1,i,0.04
CC(CCc1ccccc1)NS(=O)(=O)c1ccccc1Cl (stereo unspecified),i,0.48
Cc1ccc(C(=O)Nc2ccccc2-c2ccccc2)o1,i,0.47
O=C(Nc1c(C(=O)O)[nH]c2ccc(F)cc12)c1cccc(C(F)(F)F)c1,i,-0.94
Cc1cccc(NC(=O)COc2coc(CN3CCN(c4ccccc4)CC3)cc2=O)c1C,i,-0.74

# Screens: PubChem BioAssay, Johns Hopkins Ion Channel Center

# An excerpt; the hit share may differ from the screen's.
